# Screens from PubChem.
# SARS PLP yeast: inhibitors of SARS-CoV papain-like protease in yeast. hit rate 0.19% among 330,000. Potency, µM (top dose mostly 32.9 µM), without a hit: top-dose activity, positive = growth rescue. S. cerevisiae expressing SARS-CoV PLpro, growth rescue; control for the full effect not named in the record; active means well fitted rising curve with a large enough effect; inconclusive means small, poorly fitted or top-dose-only effect; inactive means no such curve, though single readings can be large or run the other way; further: 0% is about no effect; nearly all actives have a fitted effect of over 55% in size; growth read by luminescence after 48 h
# Cruzain Triton: inhibitors of Trypanosoma cruzi cruzain with detergent; purified cruzain, Z-FR-AMC fluorescence, 0.01% Triton; Potency, µM, for inactives: max response, negative = inhibition, most hits filed as inhibitors; hit rate 0.43% among 200,000; AID 1478;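 further: plate controls were neutral wells for no effect and buffer without enzyme for full effect; nearly all actives have a fitted effect of over 40% in size; top concentration of the series not given in the record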
# Target sequence (P25779 123-467 limits assumed): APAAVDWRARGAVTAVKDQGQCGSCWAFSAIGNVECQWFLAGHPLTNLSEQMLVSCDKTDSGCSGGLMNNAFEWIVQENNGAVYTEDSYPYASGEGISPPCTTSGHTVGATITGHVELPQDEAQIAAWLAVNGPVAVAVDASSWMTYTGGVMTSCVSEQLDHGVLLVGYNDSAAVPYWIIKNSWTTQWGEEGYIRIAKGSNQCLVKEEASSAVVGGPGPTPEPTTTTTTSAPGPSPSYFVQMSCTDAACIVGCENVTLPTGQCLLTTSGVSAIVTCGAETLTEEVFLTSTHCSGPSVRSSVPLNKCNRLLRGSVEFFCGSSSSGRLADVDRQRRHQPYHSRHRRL
#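 Compounds were screened in titration against cruzain (1.5 nM) with 0.01% Triton X-100 to counter colloidal aggregation. Activity was the AMC fluorescence increase over 60 s after adding 2 uM Z-FR-AMC at pH 5.5.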
# Cruzain noTriton: inhibitors of Trypanosoma cruzi cruzain without detergent. Potency, µM, for the others: max response, negative = inhibition, actives largely listed as inhibitors. hit rate 2.3% among 200,000. purified cruzain, Z-FR-AMC fluorescence, no detergent;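 further: plate controls were enzyme without inhibitor for no effect and buffer without enzyme for full effect; nearly all actives have a fitted effect of over 40% in size; top concentration of the series not given in the record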
#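 Detergent-free condition (0.00005% Triton X-100) in acetate buffer pH 5.5 with DTT. 1.5 nM enzyme and compound were pre-mixed 15 min, then 2 uM Z-FR-AMC substrate added; reaction progress from fluorescence change between first and third reads (60 s).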
# RE007 growth inh: less growth of the S. pombe RE007 Vpr strain; S. pombe RE007 Vpr strain, BacTiter-Glo ATP luminescence, 24 h; control for the full effect not named in the record; Potency, µM (series often up to 92.2 µM), without a hit: at the highest dose activity change, negative = less growth; hit rate 0.21% among 360,000; AID 651644; active = well fitted falling curve with a large enough effect; inconclusive = small, poorly fitted or top-dose-only effect; inactive = no such curve, though single readings can be large or run the other way;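 further: on the % scale 0 is the no-effect control and ±100 the full control effect; nearly all actives have a fitted effect of over 50% in size; the assay follows cell death caused by Vpr and the record does not say whether a fall means rescue or toxicity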
#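 Fission yeast strain RE007, carrying one chromosomally integrated HIV-1 vpr copy, was seeded at OD 0.01 in PMG+AL medium with 23 nL pinned compound. After 24 h at 30 °C and 99% humidity, viability was read by BacTiter-Glo luminescence.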
# StopGo reporter: lowers the luciferase signal of an FMDV 2A StopGo reporter. Potency, µM (highest dose often 57.9 µM), for the others: top-dose signal change, negative = less light. hit rate 1.2% among 410,000. human cells with a luciferase reporter of 2A StopGo recoding; control for the full effect not named in the record; active = well fitted falling curve with a large enough effect; inconclusive = small, poorly fitted or top-dose-only effect; inactive = no such curve, though single readings can be large or run the other way; tested in HEK293T cells; further: on the % scale 0 is the no-effect control and ±100 the full control effect; nearly all actives have a fitted effect of over 45% in size; luciferase light after 4 h
# NS1 inh: blocks influenza NS1 protein function. S. cerevisiae slowed by influenza A NS1, growth recovery by OD600. Potency, µM (doses to about 46.1 µM), for inactives: at the highest dose activity, positive = more growth. hit rate 0.4% among 270,000. AID 2326; active means well fitted rising curve with a large enough effect; inconclusive means small, poorly fitted or top-dose-only effect; inactive means no such curve, though single readings can be large or run the other way; further: nearly all actives have a fitted effect of over 50% in size
#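 Read-out: OD600 growth recovery of NS1-expressing budding yeast. Cells grown overnight at 30C in -URA glucose medium, washed, resuspended and diluted 1:100 in 2% galactose assay medium, pH 6.0. Same strain lacking NS1 served as positive control.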
# MARV entry inh: blocks Marburg virus binding to or entry into cells; Marburg virus pseudotyped entry inhibition, cell reporter; control for the full effect not named in the record; about a third of the inactives were read at about 46 µM; Potency, µM (series often up to 37.8 µM), inactives show at the top dose activity change, negative = inhibition, actives largely listed as inhibitors; hit rate 1.8% among 300,000; AID 540276; active = well fitted inhibition curve with a large enough effect; inconclusive = small, poorly fitted or top-dose-only effect, or effect the other way; inactive = flat fitted curve, though single readings scatter; tested in HEK293 cells; about a fifth of its hits are not listed in these tables; further: on the % scale 0 is the no-effect control and ±100 the full control effect; luciferase read-out
# LASV entry inh: Lassa virus entry inhibition; Lassa virus pseudotype entry inhibition, cell reporter; control for the full effect not named in the record; Potency, µM (highest dose often 37.9 µM), for the others: at the highest dose activity change, negative = inhibition, hits mostly inhibitors; hit rate 1.2% among 300,000; AID 540256; active means well fitted inhibition curve with a large enough effect; inconclusive means small, poorly fitted or top-dose-only effect, or effect the other way; inactive means flat fitted curve, though single readings scatter; tested in HEK293 cells; further: on the % scale 0 is the no-effect control and ±100 the full control effect; nearly all actives have a fitted effect of over 50% in size; luciferase read-out
# Active calls of the source: *; ? = inconclusive; . = no result given; & = joins results of further samples; [ ] = dose if it differs, or a comment. Unless noted, the call rests on the fitted dose curve; in most records, active means well fitted curve in the direction sought with a large enough effect; inconclusive means small, poorly fitted or top-dose-only effect, or another doubt; inactive means no such curve, though single readings can be large; an effect the other way counts as inactive or inconclusive. Potency means the concentration at half of the fitted maximal effect.
SMILES,SARS PLP yeast,Cruzain Triton,Cruzain noTriton,RE007 growth inh,StopGo reporter,NS1 inh,MARV entry inh,LASV entry inh
O=C(N/N=C/c1cc(Br)ccc1O)C(=O)Nc1ccccc1OC(F)(F)C(F)F,-5%,0.0%,-21%,-5%,-28%,-12%,?,?
Cc1cc(C)cc(N(CC(=O)NC(C)(C)C)C(=O)CNC(=O)c2cccs2)c1,0%,.,.,-12%,-17%,1%,-17%[46.1 µM],0%[46.1 µM]
CSc1cccc(NC(=O)CN2C(=O)c3ccccc3S2(=O)=O)c1,-4%,-1.9%,-6%,-13%,-27%,-7%,.,.
CC(C)(C)Nc1nc2cc([N+](=O)[O-])ccc2o1,2%,.,.,-7%,15%,-8%,.,.
CCOC1(OCC)C(c2ccc(N)cc2)C(C#N)(C#N)C1(OCC)OCC (configuration not stated),2%,-7.5%,-2%,0%,?,-14%,?,-3%
COc1cc(C(=O)NCCc2ccc(S(=O)(=O)N3CCCC3)cc2)cc(OC)c1OC,1%,.,.,0%,-6%,-4%,.,.
Cc1occc1-c1nnc(SCC(=O)N2CCN(c3ccc(F)cc3)CC2)n1C,-5%,-1.7%,-1%,2%,?,-18%,?,-6%
CCC(C(=O)NC1CC1)n1nc(C)c2c(C)n(-c3ccc(C)cc3)nc2c1=O (configuration not stated),-1%,.,.,6%,-12%,9%,.,.
Cc1ccc(/C=C/S(=O)(=O)NCc2ccc(F)cc2)cc1,-1%,.,.,-1%,7%,.,17%[46.1 µM],26%[46.1 µM]
CCCS(=O)(=O)C(=C(Nc1ccc(OC)cc1)Nc1ccc(OC)cc1)S(=O)(=O)CCC,0%,1.9%,8%,-5%,.,9%,-16%,-25%
O=C(O)c1cc(C2CC2)nc2ccccc12,7%,-1.7%&-2.2%,-8%&-4%,12%,3%,-15%,19%&19%&19%,0%
CCN(CC)CCCNC(=O)C1CCN(S(C)(=O)=O)CC1,.,0.9%,-3%,.,-6%,.,.,?
O=C(NC1CCCCCC1)C1c2ccccc2C(=O)N1Cc1ccc(F)cc1 (configuration not stated),.,3.5%,-13%,.,-9%,.,6%[46.1 µM],?
CC(C)CCN1C(=O)c2ccc(C(=O)NCC3CCCO3)cc2C1=O (configuration not stated),0%,-1.1%,-6%,7%,-21%,3%,20%[46.1 µM],1%
O=C(NCc1ccc2c(c1)CCN2C(=O)c1ccc(F)cc1)c1ccc(Br)o1,.,0.5%,-2%,.,-16%,.,.,-18%[46.1 µM]
COC(=O)C(O)(NC(=O)NC(C)=O)C(F)(F)F (configuration not stated),2%,2.1%,5%,15%,-21%,?,1%[46.1 µM],-1%
CN1CCN(C(=O)c2cc3nc(-c4ccccc4)cc(-c4ccccc4)n3n2)CC1,-3%,5.5%,3%,-15%,73%[activator],-4%,-19%,14%
Cc1cccc(-c2noc(CCC(=O)Nc3ccc(C(N)=O)cc3)n2)c1,-1%,.,.,17%,0%,13%,.,.
CCC(Oc1ccccc1)C(=O)N1CCC(C(N)=O)CC1 (configuration not stated),0%,0.5%,1%,-4%,32%[activator],8%,1%,?
COc1ccc(C)cc1NC(=O)c1nnn(Cc2cccc(F)c2)c1N,-1%,-2.3%,-4%,8%,0%,3%,.,.
CCOC(=O)Cc1ccc(NC(=O)N(C(C)C)C2CCN(C(C)=O)CC2)cc1,.,-5.3%,2%,.,-16%,.,7%[46.1 µM],0%[46.1 µM]
CCOC(=O)N1CCN(c2ccc(S(=O)(=O)N3CCOCC3)cn2)CC1,-1%,.,.,26%,-6%,.,?,0%
Cc1ccc(C(=O)NC(C)CCc2ccccc2)cc1S(=O)(=O)N1CCOCC1 (configuration not stated),1%,.,.,4%,?,.,?,-20%
CC1Cc2ccccc2N1S(=O)(=O)c1cccc(C(=O)Nc2cccnc2)c1 (configuration not stated),5%,.,.,9%,?,-32%,?,4%
COc1ccc(CN2CCN(C(=O)C3CCN(S(=O)(=O)c4cccs4)CC3)CC2)c(OC)c1OC,-1%,.,.,-1%,-20%,.,?,-21%
O=C(NCC(=O)N(CC1CCCO1)C1(C(=O)NC2CCCC2)CCCCC1)c1ccccc1 (configuration not stated),3%,-1.7%,6%,-21%,10%,-8%,6%,9%
Cc1ccc(Nc2nc(N)nc(CSCCO)n2)cc1,1%,2.1%,-8%,-10%,30%,2%,?,?
CN1CCN(S(=O)(=O)c2cccc(C(=O)Nc3nc(-c4ccccc4)cs3)c2)CC1,8%,-11%,-6%,3%,-17%,-10%,?,-20%
Cc1ccc(CSC2=Nc3ccccc3C3=NC(CC(=O)NCc4ccco4)C(=O)N23)cc1 (configuration not stated),4%,-19%,?,5%,38%[activator],13%,5%&5%,-2%
Cc1nc(SC(C)C(=O)Nc2ccccc2C)cc(-c2ccccc2)n1 (configuration not stated),.,-2.5%,2%,.,0%,.,3%[46.1 µM],-10%[46.1 µM]
CN(CC(=O)N1CCOCC1)C(=O)CSc1nc2ccccc2s1,1%,.,.,11%,9%,.,6%[46.1 µM],8%[46.1 µM]
CCC(=O)c1cc2c(C)cc(=O)oc2c(C)c1OC,-2%,-4.1%,0%,-8%,0%,1%,19%,20%
COCC(=O)Nc1cccc(Br)c1,-3%,4.4%,0%,-8%,20%,-1%,-6%,27%
COc1ccc(OC)c(CCNC(=O)CCCn2c(=O)c3cccn3c3ccc(F)cc32)c1,.,2.9%,19%,.,-14%,.,.,-1%[46.1 µM]
C=C1CCN([C@@H](C)C(=O)OCc2cccc(C)c2)S(=O)(=O)c2ccccc21,-2%,.,.,8%,-7%,-7%,.,.
CCc1ccccc1N(CC(=O)Nc1cccc(N(C)S(C)(=O)=O)c1)S(C)(=O)=O,3%,4.3%,14%,-1%,3%,-2%,14%,-9%
COc1ccc(N2CC(C(=O)NCCc3c[nH]c4ccccc34)CC2=O)cc1 (configuration not stated),-4%,.,.,0%,10%,1%,?,.
CCCCC(=O)Nc1ccc(C(=O)Nc2ccc(S(=O)(=O)Nc3nccc(C)n3)cc2)cc1,12%,0.0%,?,12%,-6%,6%,-14%,0%
CCc1nnc(N2CCN(c3ncnc4c3oc3ccccc34)CC2)s1,-5%,-2.5%,-3%,4%,22µM*,-10%,0%&-8%,4%
CC(NC(=O)c1cccs1)c1ccc(Cl)cc1 (configuration not stated),.,.,.,10%,-10%,.,-20%[46.1 µM],?
CCOC(=O)c1c(N)n(CCCOC(=O)c2ccco2)c2nc3ccccc3nc12,0%,-18%,?,-7%,?,-4%,?,?
Cc1ccc(/C=C/C(=O)O)cc1S(=O)(=O)N1CCc2ccccc21,-1%,.,.,-1%,-12%,-1%,.,.
CCOC(=O)C1CCCN(C(=O)c2cc(CN3C(=O)c4ccccc4C3=O)ccc2OC)C1 (configuration not stated),-9%,.,.,6%,-12%,.,12%,5%
O=C(Nc1ccc(Br)cc1F)c1cc2nc(-c3ccco3)cc(C(F)(F)Cl)n2n1,.,0.3%,26%,.,-14%,.,?,-20%[46.1 µM]
COc1cccc(CNC(=O)CN2CCCN(Cc3ccccc3)S2(=O)=O)c1,.,-4.0%,-1%,.,0%,.,-1%[46.1 µM],-26%[46.1 µM]
Cc1cc(O)c2c(c1)C(=O)c1cc(O)cc(O)c1C2=O,.,0.8%&-8.1%&1.6%,?,-28%,?,-40%,42%&42%&42%&42%&26%&42%&42%&42%&42%&42%,?
COc1ccc(CN(CC(=O)NCc2ccc(F)cc2)C(=O)CCC(=O)Nc2ccccn2)cc1,2%,.,.,-5%,-2%,-18%,-14%[46.1 µM],-26%
CCCCn1c(N)c(N(CC)C(=O)c2cc(OC)cc(OC)c2)c(=O)[nH]c1=O,-1%,.,.,1%,13%,.,13%,6%
COc1ccc(S(=O)(=O)Nc2cccc(S(=O)(=O)N3CCCC3)c2)cc1OC,1%,.,.,2%,73%[activator],.,-10%,-20%[46.1 µM]
CC(C)NC(=O)C(c1ccc(F)cc1)N(C(=O)CCC(=O)Nc1ccccn1)c1ccccc1F (configuration not stated),-2%,.,.,-16%,4%,0%,7%[46.1 µM],.
COc1ccc(CNC(=O)CSc2nnc(NC(=O)c3ccccc3F)s2)cc1,0%,.,.,1%,48%[activator],-3%,19%[46.1 µM],.
O=S(=O)(NCc1cc(-c2ccccc2)no1)c1ccccc1,-1%,.,.,1%,3%,.,2%[46.1 µM],-11%[46.1 µM]
Cc1ccc(OCC(=O)Nc2nnc(S(=O)(=O)N3CCc4ccccc43)s2)cc1,.,-1.3%,5%,.,-22%,.,.,19%[46.1 µM]
COCCCNC(=O)c1c(N)n(/N=C/c2cccs2)c2nc3ccccc3nc12,5%,-7.7%,?,-3%,-12%,5%,-9%[46.1 µM],-26%
Cc1ccc2oc(-c3ccc(C)c(NC(=O)/C=C/c4ccc(Cl)cc4)c3)nc2c1,.,-1.9%,-13%,.,72%[activator],.,?,18%[46.1 µM]
O=C(NCc1cccc(Cl)c1)c1cnc(N2CCCCC2)c2ccccc12,.,-19%,-13%,.,14%,.,.,-21%[46.1 µM]
COc1ccc(CCNC(=O)Cn2c(=O)n(-c3ccc(F)cc3F)c(=O)c3sccc32)cc1OC,1%,.,.,-12%,-6%,.,-7%,?
CC(=O)c1ccc(OCCCC(=O)NCc2nnc3ccccn23)cc1,1%,.,.,-4%,4%,.,3%[46.1 µM],-1%
C=CCSCC1Nc2cc(Cl)c(S(N)(=O)=O)cc2S(=O)(=O)N1 (configuration not stated),.,0.5%,21%,-3%[18.4 µM],-26%&-10%,.,.,.
Cc1cccc(OCC(=O)N(Cc2ccc(C(C)(C)C)cc2)Cc2ccco2)c1,.,-12%,-12%,.,-25%,.,-3%[46.1 µM],?
O=C(CN1C(=O)C2C3C=CC(C3)C2C1=O)NCc1ccc2c(c1)OCO2 (configuration not stated),3%,6.1%,-5%,9%,4%,6%,13%,12%
O=C(COC(=O)Cc1n[nH]c(=O)c2ccccc12)NNC(=O)c1ccccc1,-2%,.,.,5%,2%,.,-1%[46.1 µM],19%
